GIV-Gai inh: inhibitors of GIV peptide binding to Galpha-i3, primary screen, biochemical, fluorescence polarization, FITC-GIV GBA peptide, rat Galphai3; Guanine nucleotide-binding protein G(i) subunit alpha-3 (Rattus norvegicus), P08753; 90 min; stronger effect = lower value; scaled: aluminum fluoride 0%, vehicle 100%; percent of control (FP), % (concentration not given with the values); hit rate 0.42% among 210,000;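 active = replicate mean at 85% of control or lower, very high polarization wells dropped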;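 note: wells of about 15 µL received 100 nL stock; the first replicate is given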
Target sequence (P08753 whole entry, looked up): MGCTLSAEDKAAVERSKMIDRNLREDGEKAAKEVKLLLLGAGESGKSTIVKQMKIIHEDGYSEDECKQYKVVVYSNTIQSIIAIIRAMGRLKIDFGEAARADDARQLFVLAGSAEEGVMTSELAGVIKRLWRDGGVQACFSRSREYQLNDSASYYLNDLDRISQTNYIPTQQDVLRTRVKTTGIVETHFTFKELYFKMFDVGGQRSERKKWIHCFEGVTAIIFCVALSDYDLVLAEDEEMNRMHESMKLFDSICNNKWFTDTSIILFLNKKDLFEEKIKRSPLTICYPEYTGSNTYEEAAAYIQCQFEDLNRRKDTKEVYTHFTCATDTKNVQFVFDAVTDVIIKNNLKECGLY
HCMV NEC inh: inhibitors of HCMV UL50-UL53 interaction, biochemical, HTRF. AID 1918969, 2023. HCMV UL50-UL53 nuclear egress complex (human cytomegalovirus). hit rate 0.15% among 190,000. normalized percent inhibition. inhibition, % (concentration not given with the values);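 active = both replicates at 50% or more, plus weaker picks with an unusually low signal ratio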;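 note: stock transfer was 100 nL into about 20 µL; 0% = negative control wells and 100% = wells with untagged competitor protein; inactives centre near -12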
Sa growth 42C: S. aureus growth inhibition at 42 and 30 °C, primary screen, LtaS inhibitor project, RN4220, two temperatures; OD600, 20 h, 42 °C; stronger effect = lower value; hit rate 0.53% among 170,000; AID 720641, 2013; relative growth, % (concentration not given with the values);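 active = growth at 42 °C up to 50% and 20 or more points under that at 30 °C, or under 10% at both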;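 note: 300 nL library stock went into each well; scaled to the means of positive and negative controls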
Sa growth 42C second temp: recorded beside Sa growth 42C, whose call it bears; relative growth, %; measured here: growth at 30 °C;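 optical density after 20 h as mean of two plates; 100% = untreated growth and lower means inhibition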
An asterisk follows results filed as active; · = no result given; & = joins results of further samples.

SMILES | GIV-Gai inh | HCMV NEC inh | Sa growth 42C | Sa growth 42C second temp
CNC(=O)CN1c2ccc(F)cc2-c2ccccc2S1(=O)=O | 102 | -30 | · | ·
CCn1c(SCC(=O)Nc2ccccc2SCC(N)=O)n[nH]c1=O | · | -32 | 104 | 91
CC(C)NS(=O)(=O)c1ccc(OCC(=O)NC(C)(C)C)c(Cl)c1 | 101 | 6 | 101 | 102
COc1ccccc1N1CCN(C(=O)CN2C(=O)COc3ccc(S(=O)(=O)N4CCCC4)cc32)CC1 | 106 | 7 | 91 | 90
CSc1nc(-c2ccc(Cl)cc2)nn1S(=O)(=O)c1ccc(C)cc1 | 110 | 1 | 104 | 91
COC(=O)C(C(=O)N1CCN(Cc2ccccc2)CC1)C1CCCC1 (stereo not given) | 102 | -2 | 93 | 86
Cc1ccc(NC(=O)NCCCn2c(-c3ccncc3)nc3cccnc32)cc1Cl | 104 | 2 | · | ·
C=CCOc1cccc(/C=C2/SC(=S)N(CCc3ccccc3)C2=O)c1 | 111 | -3 | 97 | 87
CCCN1C(=O)C(CC(=O)Nc2ccccc2)SC1=Nc1ccc(S(=O)(=O)N2CCOCC2)cc1 (stereo not given) | · | -2 | 98 | 89
CC(C)CCn1cnc2c(NCc3ccccc3)ncnc21 | · | 2 | 107 | 92
COc1ccc(-c2nnn(CC(=O)N(Cc3ccccc3)C(C)C(=O)NC3CCCC3)n2)cc1OC (stereo not given) | 109 | -5 | 120 | 104
COC(=O)c1scc(C)c1S(=O)(=O)Nc1ccc(C)cc1 | 99 | -28 | 89 | 89
CCc1ccc(NC(=O)N2CCC(CN3CCCCC3)CC2)cc1 | 100 | 0 | · | ·
CC(OC(=O)Cc1coc2cc3c(cc12)CCC3)C(=O)Nc1ccc2c(c1)OCO2 (stereo not given) | · | -25 | 80 | 84
CCCN(C(=O)C1CC(=O)N(c2ccccc2C(C)CC)C1)C1CCS(=O)(=O)C1 (stereo not given) | · | -11 | 79 | 94
CCC1CCc2nc3sc(C(=O)Nc4ccc(C)cc4)c(N)c3cc2C1 (stereo not given) | 103 | -20 | 114 | 89
COCCN(Cc1cc2cc3c(cc2nc1Cl)OCO3)C(=O)Nc1ccccc1OC | 102 | -21 | 108 | 106
O=C(NC1CCN(Cc2ccccc2)CC1)C1CCCN(c2ccnc(-c3cccc(F)c3)n2)C1 (stereo not given) | 106 | -17 | · | ·
CCC1CN(C(=O)N2CCC(C(=O)NCCCc3ccccc3)CC2)c2cc(C)ccc2O1 (stereo not given) | 102 | -8 | 96 | 88
O=C(NCc1ccccn1)c1cc(-c2cccnc2)nc2ccccc12 | 103 | · | 112 | 77
COc1cc(NC(=S)N(C)C)cc(OC)c1 | 111 | 0 | 100 | 97
COCc1nnc(NC(=O)c2ccccc2OCc2nc(-c3ccccc3)no2)s1 | 105 | -7 | · | ·
CC1=Nc2cc(C(=O)O)ccc2Sc2ccc(C)cc21 | 101&99 | 0 | 81 | 77
COC(=O)c1ccc(S(=O)(=O)NNc2ncnc3cc(C(C)(C)C)sc23)n1C | 106 | -11 | 98 | 90
CC(=O)Nc1ccc(S(=O)(=O)N2CCC(c3nnc(-c4ccc(C)cc4)o3)CC2)cc1 | 111 | -3 | 97 | 67
CCCCNS(=O)(=O)c1ccc2nc(-c3cccnc3)cc(C(=O)NCCCOCC)c2c1 | 103&104 | · | 115 | 84
Cn1c(SCC(=O)c2ccc3c(c2)NC(=O)CO3)nc2ccccc21 | · | -4 | 86 | 92
Cc1ccc(-c2nc(CCNC(=O)C(=O)Nc3ccc(C)c(Cl)c3)cs2)cc1 | 96 | · | 104 | 84
Cc1ccc(SCCC(=O)N2CCN(c3ncc(C(F)(F)F)cc3Cl)CC2)cc1 | 101 | -54 | 82 | 91
CCC(=O)Nc1cccc(Br)c1 | 108 | 8 | 101 | 100
CC(C)(C)C(=O)OC1OCCOC1OC(=O)C(C)(C)C (stereo not given) | · | -13 | 103 | 104
CCN(CC)c1nn2c(=O)c(C(=O)NCCc3cccc(C)c3)cnc2s1 | 100 | · | 114 | 91
Cc1ccc2nc(N(Cc3cccnc3)C(=O)c3ccc4c(c3)OCCO4)sc2c1 | 103&102 | · | 96 | 91
Cc1noc(C)c1C(=O)Oc1ccc(-c2csnn2)cc1 | 95 | -6 | 97 | 91
CCN(CC)S(=O)(=O)c1ccc2c(c1)N(CC(=O)Nc1ccc(F)cc1)C(=O)CO2 | 107 | -13 | 111 | 87
COc1ccc(CNC(=O)c2coc(=O)c3ccccc23)cc1 | 101 | -1 | 104 | 87
COc1ccc2nc(NC(=O)CC(C)(C)C)sc2c1 | 103 | 3 | 118 | 97
CC(C)NC(=O)CSCc1ccc(Cl)cc1 | · | -1 | 107 | 89
N#Cc1nc(-c2ccccc2F)oc1NCC1CCCO1 (stereo not given) | 97 | · | 92 | 78
CCn1c(CNC(=O)c2ccc(C)cc2)nnc1SCC(=O)NCc1ccccc1 | 100 | -12 | 98 | 97
CSc1ccccc1NC(=O)c1cc2n(n1)C(C(F)(F)F)C1CCc3ccccc3C1N2 (stereo not given) | · | 2 | 81 | 107
CCN(CC)c1ccc(CN2CCCC(CO)C2)cc1 (stereo not given) | 112 | 6 | 94 | 106
Cn1cnc2c(Cl)ncnc21 | 100 | -15 | 95 | 94
Cc1cc(C(F)F)n2nc(C(=O)Nc3ccc(F)c(Cl)c3)nc2n1 | 100 | -6 | 87 | 94
O=C(c1cccnc1)N1N=C(c2c(-c3ccccc3)c3cc(Br)ccc3[nH]c2=O)CC1c1ccccc1 (stereo not given) | 100 | -5 | · | ·
O=C(CCN(C(=O)c1ccc(Cl)cc1)C1CCCC1)N1CCNCC1 | 105 | -9 | · | ·
Fc1ccc(-c2nnc3ccc(N4CCN(C(=S)NCc5ccccc5)CC4)nn23)cc1 | 103 | · | 121 | 76
CCSc1nnc(NC(=O)CC2OC(=O)c3ccccc32)s1 (stereo not given) | · | -20 | 57 | 89
c1cc(C2OCCO2)ccc1C1OCCO1 | 96 | -21 | 96 | 79
COc1ccc(Nc2nc(C)cc(=O)[nH]2)cc1Cl | 108 | 18 | · | ·
COc1cccc2c1Oc1ncccc1N(C(=O)CCC(=O)NCc1ccc(C)cc1)C2 | 100 | · | 74 | 76
COc1cccc(Nc2ccc(Nc3cccc(OC)c3)nn2)c1 | · | -23 | 100 | 92
CC1CCN(C(=O)COC(=O)c2ccc(N(C)C)cc2)CC1 | · | -17 | 124 | 85
NC(=O)CSc1nnc2c(n1)[nH]c1ccc(Cl)cc12 | 101 | -17 | 80 | 118
COc1cc(/C=C2\SC(N3CCN(CCO)CC3)=NC2=O)ccc1OCc1ccccc1 | 97 | -68 | 106 | 70
O=C(O)C1CSC(c2ccccc2)N1 (stereo not given) | 101 | · | 90 | 88
COCc1cc(OC(C)C)nc(-c2cccc(C)c2)n1 | 98 | -2 | 128 | 52
O=C(CSc1nc(=O)n(CCCN2CCOCC2)c2c1CCCC2)N1CCc2ccccc21 | 105 | 8 | 96 | 93
CC(Oc1ccc(C#N)cc1)C(=O)NN1C(C)CCCC1C (stereo not given) | · | 2 | 113 | 100
O=S(=O)(c1ccc(Cl)cc1)c1nc(-c2ccccc2F)oc1NCc1ccccc1 | 102 | 2 | 97 | 94

Not a retest: an excerpt of the list.
SMILES | GIV-Gai inh | HCMV NEC inh | Sa growth 42C | Sa growth 42C second temp
CC(C)(C)C(=O)OC1OCCOC1OC(=O)C(C)(C)C (stereo not given) | · | -13 | 103 | 104
CCN(CC)c1nn2c(=O)c(C(=O)NCCc3cccc(C)c3)cnc2s1 | 100 | · | 114 | 91

Among those listed so far, these contain a thiophene ring, fused or not:
SMILES | GIV-Gai inh | HCMV NEC inh | Sa growth 42C | Sa growth 42C second temp
COC(=O)c1scc(C)c1S(=O)(=O)Nc1ccc(C)cc1 | 99 | -28 | 89 | 89
CCC1CCc2nc3sc(C(=O)Nc4ccc(C)cc4)c(N)c3cc2C1 (stereo not given) | 103 | -20 | 114 | 89
COC(=O)c1ccc(S(=O)(=O)NNc2ncnc3cc(C(C)(C)C)sc23)n1C | 106 | -11 | 98 | 90

Full records, quoted from the list. Order of values: GIV-Gai inh, HCMV NEC inh, Sa growth 42C, Sa growth 42C second temp
`CSc1ccccc1NC(=O)c1cc2n(n1)C(C(F)(F)F)C1CCc3ccccc3C1N2` (stereo not given) as listed: ·, 2, 81, 107
`O=C(c1cccnc1)N1N=C(c2c(-c3ccccc3)c3cc(Br)ccc3[nH]c2=O)CC1c1ccccc1` (stereo not given) as listed: 100, -5, ·, ·
`Cc1cc(C(F)F)n2nc(C(=O)Nc3ccc(F)c(Cl)c3)nc2n1` as listed: 100, -6, 87, 94

Other structures:
SMILES | GIV-Gai inh | HCMV NEC inh | Sa growth 42C | Sa growth 42C second temp
CC(C)NC(=S)NNc1ncc(C(F)(F)F)cc1Cl | · | -19 | 108 | 83
COc1ccc(CCNC(=O)c2ccc(-n3cncn3)cc2)cc1 | · | -26 | 84 | 89
Cc1cccc(NS(=O)(=O)c2ccc(CCN3C(=O)c4cccnc4C3=O)cc2)c1C | 99 | · | 90 | 86
Cc1ccc(CC(=O)Nc2cc(C)on2)cc1 | 103 | 3 | 93 | 81
CCOc1ccc(C2c3[nH]c4ccccc4c3CCN2C(=O)CSc2ccccc2)cc1 (stereo not given) | 112 | · | 107 | 110
NC(=O)C1C2C=CC(C2)C1C(=O)O (stereo not given) | 100 | -23 | 104 | 91
Cn1ccnc1SCC(=O)c1cccc(C(F)(F)F)c1 | · | -11 | 101 | 86
COc1ccccc1OCC(=O)N(Cc1ccco1)Cc1ccccc1F | 103 | -6 | 107 | 93
O=C(NC1CCS(=O)(=O)C1)c1cccn1-c1cccnc1 (stereo not given) | 103 | -18 | · | ·
Cc1ccc(-c2noc(CCC(=O)N(C)C)n2)cc1 | 101 | · | 94 | 82
CCN1C(=O)CSc2ccc(C(=O)NC3CCCCCCC3)cc21 | 103 | 14 | 102 | 106
CNC(=O)COC(=O)c1ccccc1OC | · | -5 | 97 | 99
COc1cccc2c1NC(c1ccccc1Br)C1CC=CC21 (stereo not given) | 105 | -5 | · | ·
Cc1ccc(-c2noc(COC(=O)c3cccnc3SCC(=O)Nc3ccccc3OC(F)F)n2)cc1 | · | -5 | 97 | 84
Cc1cc(C)nc(SCC(=O)NC2CCCCC2)n1 | · | -23 | 93 | 63
CCOC(=O)c1cccc(NC(=O)CCCn2nc(C)c3c(C)n(-c4ccccc4)nc3c2=O)c1 | 97 | · | 82 | 90
Cc1sc(-c2cnn(-c3ccccc3)c2N)nc1-c1ccccc1 | · | 4 | 96 | 93
Cc1cc(S(=O)(=O)N2CCN(Cc3noc(CCC(=O)N(C)C4CCCCC4)n3)CC2)ccc1F | 104 | -18 | 92 | 92
COC(=O)C1C2C=CC3(CN(C(C)c4ccccc4)C(=O)C13)O2 (stereo not given) | 102 | 9 | 110 | 98
CCCCOC(=O)Cn1c2ccccc2c2nc3ccccc3nc21 | 105 | -1 | 104 | 96
COc1cc(-c2noc(C3CC(=O)N(c4ccc5c(c4)OCCO5)C3)n2)cc(OC)c1OC (stereo not given) | 95 | · | 94 | 84
O=S(=O)(c1cccc2cccnc12)N1CCC(n2cccc2)CC1 | 100 | -21 | 93 | 88
CNC(=O)c1ccc(NC(=O)c2nsc3ccccc23)cc1 | 102&104 | -28&-33 | 105 | 70
CN(C(=O)Cn1ncc2c(=O)oc3ccccc3c21)c1ccc(F)cc1 | 103 | -8 | 104 | 91
CC(C)(C)C1CCc2c(sc(NC(=O)c3noc4c3CCCC4)c2C#N)C1 (stereo not given) | 103 | -17 | 103 | 88

Ordered by length of the SMILES (lowest first): part of the list above.
SMILES | GIV-Gai inh | HCMV NEC inh | Sa growth 42C | Sa growth 42C second temp
CC(C)NC(=S)NNc1ncc(C(F)(F)F)cc1Cl | · | -19 | 108 | 83
COc1ccccc1OCC(=O)N(Cc1ccco1)Cc1ccccc1F | 103 | -6 | 107 | 93
O=S(=O)(c1cccc2cccnc12)N1CCC(n2cccc2)CC1 | 100 | -21 | 93 | 88
COc1cc(-c2noc(C3CC(=O)N(c4ccc5c(c4)OCCO5)C3)n2)cc(OC)c1OC (stereo not given) | 95 | · | 94 | 84
